Screening results as filed in PubChem.
Ecoli growth = E. coli growth inhibition. AID 1053175. OD600 absorbance (concentration not given with the values). 330,000 compounds, 0.21% hits. Escherichia coli growth, OD600, 23 h; active compounds read low;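 active = OD600 absorbance below the run mean of sample wells minus 3.6 SD, in any replicate, cut at about 0.56 in these data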;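 note: stock transfer was 300 nL into about 60 µL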
HNF4A DNA FP = change in binding of human HNF4 alpha to DNA. activity change, % at 10 µM. P41235. AID 1224865. HNF4a-FITC DNA binding, fluorescence polarization, 1 h. 360,000 compounds, 0.3% hits; in the data active = activity change above about 30%, passing the limit was not always enough;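 note: controls were the assay level and a saturating level of protein; the project sought stronger binding though the title names inhibitors; some compounds called inactive have numbers as strong as hits; positive values seem to mean higher polarization but the record does not say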
FGF22 binding = FGF22 (human) thermal shift binding | Q9HCT0 | recombinant FGF22 thermal shift, SYPRO orange fluorescence; percent of sucrose octasulfate shift, DMSO zero | calls only at 9.99 µM | 340,000 compounds, 1.5% hits | AID 651658;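 active = melting point raised past a set limit in the mean and every replicate; inconclusive = no clear call; three in four hits are not shown here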
Target sequence (Q9HCT0 whole entry, looked up): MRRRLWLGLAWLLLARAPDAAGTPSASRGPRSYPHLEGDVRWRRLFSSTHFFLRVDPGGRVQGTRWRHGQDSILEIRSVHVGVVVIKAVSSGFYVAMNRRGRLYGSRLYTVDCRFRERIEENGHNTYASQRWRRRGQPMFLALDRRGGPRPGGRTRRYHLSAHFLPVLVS
Vif TR-FRET = HIV-1 Vif–A3G interaction blockers – biochemical, TR-FRET, GST-Vif 1-94, biotin-A3G peptide, dose response retest, primary screen (AID 1117319) | TR-FRET GST-Vif / biotin-A3G peptide binding; higher % means a stronger effect; test concentration not given here; strong numbers were not always called active | inhibition, %, or IC50 in µM where a hit was titrated | 260,000 compounds, 0.57% hits;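 active = above the screen mean plus three standard deviations and confirmed in dose response; inconclusive = results disagree or hit not tested in dose response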;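 note: Vif residues 1-94 fused to GST binding biotinylated APOBEC3G peptide 110-148; 0% = full assay without inhibitor and 100% = GST in place of GST-Vif; retest series ran down from 100 µM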
AF4-AF9 inh = blocks AF4 peptide binding to human AF9; AlphaScreen, biotin-AF4 peptide binding to FLAG-AF9; P42568; inhibition, % at 10 µM; 350,000 compounds, 0.47% hits;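 active = every replicate reaching a set inhibition limit, whatever the replicate mean, cut at about 25% in these data; inconclusive = mean inhibition reaches that limit but some replicates miss it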;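 note: 0% = plate neutral control median and 100% = total signal loss; the record names both 10 and 1 µM as test concentration; the first replicate is given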
Target sequence (P42568 whole entry, looked up): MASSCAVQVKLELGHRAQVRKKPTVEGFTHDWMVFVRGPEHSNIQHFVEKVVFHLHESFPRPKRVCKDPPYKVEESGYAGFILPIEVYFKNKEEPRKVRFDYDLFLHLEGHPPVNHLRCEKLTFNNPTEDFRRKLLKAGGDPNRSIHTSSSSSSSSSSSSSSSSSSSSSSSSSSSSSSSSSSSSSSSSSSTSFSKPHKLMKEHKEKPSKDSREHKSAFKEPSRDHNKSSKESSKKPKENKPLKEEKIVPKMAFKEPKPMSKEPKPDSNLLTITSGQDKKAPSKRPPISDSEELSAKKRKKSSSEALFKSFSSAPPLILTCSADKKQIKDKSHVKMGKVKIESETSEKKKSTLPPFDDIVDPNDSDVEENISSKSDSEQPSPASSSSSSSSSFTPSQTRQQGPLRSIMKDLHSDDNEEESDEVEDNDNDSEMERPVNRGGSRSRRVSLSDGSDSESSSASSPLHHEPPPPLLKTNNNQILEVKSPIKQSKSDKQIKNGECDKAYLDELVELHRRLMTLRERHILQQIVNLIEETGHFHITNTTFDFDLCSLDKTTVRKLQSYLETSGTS
rRNA inh HTS = inhibits bacterial ribosomal RNA function over humanized ribosomes. 350,000 compounds, 1.6% hits. E. coli WT GFP vs humanized-ribosome RFP mutants, fluorescence, 24 h; active compounds read low; DMSO median 0, no signal -100. AID 720706. GFP signal change (wild-type ribosome), % (concentration not given with the values);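 active = significant combined selectivity score with lowered wild-type GFP, culture density cut under 30%, mutant RFP and density less affected; inactive = any of these conditions unmet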; note: one replicate is shown; some compounds called inactive have numbers as strong as hits
ALR inh = blocks human ALR sulfhydryl oxidase activity; P55789; purified ALR, DTT oxidation, H2O2 HRP-luminol luminescence; inhibition, % (test concentration not listed); 290,000 compounds, 3.8% hits; AID 485317;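 active = mean and each replicate at 75% or more; inconclusive = only one of the two met; inactive = neither met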;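 note: stock transfer was 7.5 nL into about 7.5 µL; 0% = neutral wells and 100% = wells with inactivated enzyme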
Target sequence (P55789 whole entry, looked up): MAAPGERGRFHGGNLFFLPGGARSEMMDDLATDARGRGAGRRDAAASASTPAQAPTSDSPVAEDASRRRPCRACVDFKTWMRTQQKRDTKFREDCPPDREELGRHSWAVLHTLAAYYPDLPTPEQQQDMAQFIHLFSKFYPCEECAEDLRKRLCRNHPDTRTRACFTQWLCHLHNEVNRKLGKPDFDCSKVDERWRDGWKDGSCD
rRNA inh HTS OD600 = second read-out of rRNA inh HTS, no call of its own (marks repeat the call); OD600 change, %; measured here: OD600 growth;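 optical density of the mix in the first replicate; 0 = DMSO median and -100 = no signal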
rRNA inh HTS RFP = also measured in rRNA inh HTS; calls as there; RFP signal change, %; measured here: RFP humanized mutant strains;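 first replicate; 0 = DMSO median and -100 = no signal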
Starred values were filed as active, the others as inactive; i = inactive; u = inconclusive; x = not tested or not shown; & = joins results of further samples.

SMILES	Ecoli growth	HNF4A DNA FP	FGF22 binding	Vif TR-FRET	AF4-AF9 inh	rRNA inh HTS	rRNA inh HTS OD600	rRNA inh HTS RFP	ALR inh
O=C(COC(=O)/C=C/c1ccc(OC(F)F)cc1)Nc1ccc2[nH]c(=O)[nH]c2c1	0.76	5.1	i	4%	-4.7	7	5	2.7	x
COc1ccc(NC(=S)NC23CC4CC(CC(C4)C2)C3)cc1OC	0.71	5.0	i	-3%	-9.5	-1	-23	1.5	-5
CCCn1nc(C(=O)Nc2cc(C(=O)OC)ccc2C)c2ccccc2c1=O	0.7	-2.9	i	86µM*	-2.2	20	6	-11	-17
Clc1ccc(-c2nnsc2SCc2ccccc2)cc1	0.7	6.2	x	20%	x	x	x	x	-2
CCOC(=O)c1ccc(N2CN(CCc3ccccc3)CNC2=S)cc1	0.68	-0.1	x	-12%	x	x	x	x	-6
CCc1sc(C(=O)NCc2cc(C)n(C)n2)cc1Br	0.64	2.7	x	5%	x	x	x	x	2
Cc1ccc(-n2nc3c(=O)n(CCCC(=O)NCCN4CCN(C)CC4)nc(C)c3c2C)cc1	0.69	0.9	i	x	-7.9	-1	6	-1.6	-14
O=C(COC(=O)c1cc(-c2ccco2)nc2ccccc12)NCc1ccc2c(c1)OCO2	0.71	-3.2	x	12µM*	x	x	x	x	22
O=C(CN(C1CC1)S(=O)(=O)c1ccc(S(=O)(=O)N2CCCCCC2)cc1)Nc1ccccc1	0.77	-5.6	x	-3%	x	x	x	x	-3
COc1ccc(S(=O)(=O)N(C)C[C@@H]2OCCCC[C@@H](C)Oc3ccc(NC(=O)c4ccncc4)cc3C(=O)N([C@@H](C)CO)C[C@@H]2C)cc1	x	x	i	x	-1.4	0	11	-0.3	x
COc1ccccc1C#Cc1ccc2c(c1)[C@@H]1[C@@H](CCN1C(=O)c1ccc(F)cc1)[C@@H](CO)N2	x	x	i	x	-1.2	-5	4	6.9	x
COc1ccc(N(CC(=O)Nc2ccc(S(=O)(=O)N3CCOCC3)cc2)S(=O)(=O)c2ccc(F)cc2)cc1	0.7	-0.6	i	-8%	2.5	0	-2	2.1	-17
O=C(NN=C1CCCC1)c1cc(Cl)cc(Cl)c1O	0.66	-2.7	i	x	0.9	-29*	-17*	-2.2*	u
O=c1c2nnn(-c3ccccc3)c2ncn1C/C=C/c1ccccc1	x	-1.0	i	4%	0.1	3	-2	-2.2	x
CCN(c1ccccc1)S(=O)(=O)c1ccc(C(=O)Nc2cc(C)ccn2)cc1	0.7	-2.3	i	-2%	-7.3	-15	-19	-4.1	-1

With a hit mark in Vif TR-FRET, of those listed so far:
canonical_smiles	HNF4A DNA FP	FGF22 binding	Vif TR-FRET	AF4-AF9 inh	rRNA inh HTS	rRNA inh HTS OD600	rRNA inh HTS RFP	ALR inh
CCCn1nc(C(=O)Nc2cc(C(=O)OC)ccc2C)c2ccccc2c1=O	-2.9	i	86µM*	-2.2	20	6	-11	-17
O=C(COC(=O)c1cc(-c2ccco2)nc2ccccc12)NCc1ccc2c(c1)OCO2	-3.2	x	12µM*	x	x	x	x	22

The list goes on.
SMILES	Ecoli growth	HNF4A DNA FP	FGF22 binding	Vif TR-FRET	AF4-AF9 inh	rRNA inh HTS	rRNA inh HTS OD600	rRNA inh HTS RFP	ALR inh
Cc1noc(C)c1NC(=O)Nc1ccc2c(c1)C(=O)N([C@@H](C)CO)C[C@@H](C)[C@H](CN(C)C(=O)Nc1cccc3ccccc13)OCCCC[C@H](C)O2	x	-2.0	i	x	-0.2	-4&-2	4&0	7.0&-0.5	x
Cc1sc2nc(C3CC3)nc(NCCNS(C)(=O)=O)c2c1C	0.73	-2.3	x	6%	x	x	x	x	-4
COc1cccc(N2CC(O)Cn3c2nc2c3c(=O)[nH]c(=O)n2C)c1 (stereo not drawn)	0.58	-0.3	i	x	3.4	-7	-30	-0.9	2
CSCCC(NC(=O)c1ccccc1Cl)C(=O)NCC(c1cccs1)N(C)C (stereo not drawn)	0.68	1.7	i	-6%	-17	11	-6	-2.2	x
CCCCOc1ccc(NC(=O)C(=O)NCCCn2ccnc2)cc1	0.7	0.6	i	-9%	4.0	9	14	-4.4	0
NS(=O)(=O)c1ccc(CCNc2nc3c(-c4cccc(F)c4)nnn3c3ccccc23)cc1	x	6.2	x	-3%	x	x	x	x	-5
CC(=O)NC(Cc1c[nH]c2ccccc12)C(=O)O (stereo not drawn)	0.66&0.7	1.8	i	3%	0.1	x	x	x	-25
Cc1cc(C(=O)N2CCCC(C(=O)c3cccc(C(F)(F)F)c3)C2)nc(C)n1 (stereo not drawn)	x	0.1	i	-8%	0.7	1	1	-3.2	-2
CCNC(=O)NC(=O)COC(=O)c1cccc(NS(=O)(=O)/C=C/c2ccccc2)c1	0.67	0.3	i	-4%	1.3	-9	-13	13	2
CCc1cnc(N2[C@H](C#N)[C@H](c3ccc(C#CC(C)C)cc3)[C@H]2CO)s1	x	x	i	x	3.9	-4	-50	0.3	x
C[C@@H]1CN([C@H](C)CO)S(=O)(=O)c2ccc(C#CCN(C)C)cc2O[C@H]1CN(C)S(=O)(=O)c1cccc(F)c1	x	x	i	x	6.2	1	-12	-0.5	x
CC(=O)Nc1ccc2[nH]ccc2c1	0.78	-0.1	i	x	0.2	4	11	-5.7	-10
CS(=O)(=O)Cc1nc2ccccc2oc1=O	0.67	-4.3	x	u	x	x	x	x	99*
Cc1cccc(Nc2ncnc(N)c2[N+](=O)[O-])n1	0.66	-1.7	i	-6%	-0.2	10	-2	-1.2	-5
C[C@@H]1CN([C@@H](C)CO)C(=O)c2cccc(N(C)C)c2O[C@H]1CN(C)Cc1ccc(Cl)c(Cl)c1	x	x	i	x	6.2	-32	-68	13	x
CCCCN1C(=O)CC(Sc2ncccc2C(=O)O)C1=O (stereo not drawn)	0.63	-2.2	i	x	-0.4	6	9	-0.7	-16
O=C(COc1cc(F)ccc1[N+](=O)[O-])NCC1CCCO1 (stereo not drawn)	0.68	1.6	i	x	-5.1	13	10	-0.7	x
Cc1[nH]c2c(C)cccc2c1CC(=O)O	0.71	-5.6	i	18%	1.0	12	-3	3.8	30
CC(C)c1ccc(S(=O)(=O)N2CCN(C(=O)c3cc(-c4ccccc4)n[nH]3)CC2)cc1	0.73	4.5	i	-6%	-0.6	8	12	-1.4	-20
COc1ccccc1NC(=O)c1ccc([N+](=O)[O-])o1	0.49*	x	i	x	4.4	-2	-15	-4.9	-16
CN(C)C(=O)c1ccc2c(c1)C1C3CCC(C3)C1C(c1ccccc1)N2 (stereo not drawn)	0.72	2.5	i	-2%	6.5	-32	-35	-5.4	27
N#Cc1ccc(-c2ccc(OCC(=O)NCCc3ccccc3)cc2)cc1	0.71	-1.6	x	9%	x	x	x	x	x
CCCCn1nc(C(=O)N(CC)CC(=O)Nc2c(F)cccc2F)c2ccccc2c1=O	0.64	-4.6	i	12%	-1.1	2	18	-3.2	1
Cc1ccc(S(=O)(=O)CCC(=O)NCCc2ccc(Cl)cc2)cc1	0.63	2.1	i	0%	-3.2	0	4	0.8	-24
O=C(Nc1cccc2ncccc12)c1cc(Br)ccc1Cl	0.61	1.6	i	x	-3.0	12	7	-1.6	1
O=C(C[C@H]1C[C@@H]2c3cc(NC(=O)CC4CC4)ccc3O[C@@H]2[C@H](CO)O1)NCc1ccc(Cl)cc1	x	x	i	x	-1.8	-4	-4	-1.3	x
Cc1cc2ccccc2cc1C(=O)c1ccccc1	0.66	-0.6	i	13%	-2.5	-2	-27	-4.3	x
COc1ccc(-c2oc(=O)c3cc(OC)c(OC)cc3c2C#CCCO)cc1	x	-2.0	i	6%	2.8	-13	-12	-3.5	x
CCOc1nc(C)ccc1-c1noc(-c2ccco2)n1	0.69	1.1	i	7%	2.2	1	-2	0.3	2
Cc1ccc2nc3c(c(N)c2c1)CCN3C	x	7.6	i	-4%	-0.9	2	1	3.8	x
CCOC(=O)C1=C(C)NC(C)=C(C(=O)OCC)C1C(=O)OCC(=O)c1ccc2c(c1)OCCO2	0.7	1.2	x	3%	x	x	x	x	-28
CS(=O)(=O)Nc1ccc2c(c1)[C@H]1C[C@@H](CC(=O)N3CCOCC3)O[C@H](CO)[C@H]1O2	x	x	i	x	-13	2	3	-1.3	x
COc1cccc(C(NC(C)=O)c2nc(-c3cccc(F)c3)cs2)c1 (stereo not drawn)	x	4.5	i	x	-1.8	-9	-32	-12	x
O=c1[nH]c2cc(Br)cnc2nc1/C=C(\O)c1ccc(F)cc1	x	11	i	4%	1.7	9	5	14	7
C[C@H](CO)N1C[C@H](C)[C@@H](CN(C)CC2CCCCC2)OCCCC[C@H](C)Oc2ccc(NC(=O)Nc3ccccc3)cc2C1=O	x	x	i	x	2.5	2	-17	18	x
NC(=O)c1c(NC(=O)c2cccnc2Cl)sc2c1CCCC2	0.69	0.7	x	0%	x	x	x	x	15
O=C1CCC/C=C\C[C@@H](CC(=O)N(CCO)Cc2ccccc2)C(=O)NCCO1	x	-4.9	i	x	-1.5	-2	-1	4.6	1
COc1ccc(CNCc2cccc(C)c2)cc1	0.61	-1.7	i	x	-1.4	18	10	4.3	-19
Cc1c(C)n(C)c2ccc(C(=O)NCCCN3CCN(c4ccccc4F)CC3)cc12	0.67	4.6	i	x	19	-47	-75	0.8	-1
Cc1cccc(C)c1NS(=O)(=O)c1c(C)[nH]c(=O)[nH]c1=O	0.66	0.2	x	85µM*	x	x	x	x	x
COC(=O)c1cccc2c1-c1ccccc1/C2=N/O	x	3.3	x	2%	x	x	x	x	0
COc1ccc(C2=NN(C(=O)CSc3cn(C)c4ccccc34)C(c3ccc(OC)cc3)C2)cc1 (stereo not drawn)	0.78	2.9	i	-19%	0.1	6	19	2.2	0
CCNC(=O)Nc1ccc2c(c1)C(=O)N(C)[C@H]1CC[C@H](CC(=O)NCC3CCCCC3)O[C@@H]1CO2	x	x	i	x	2.5	-1	-6	0.3	x
CCCn1c(=O)c(C#N)cn(C2CC2)c1=O	0.62	1.7	i	-1%	-2.4	5	6	-0.3	-17
Cc1ccc(C23CC4CC(CC(C(=O)N5CCOCC5)(C4)C2)C3)cc1	0.67	-4.6	i	-2%	-2.0	2	-3	-0.7	-11

Compound profiles (already shown). Screens in order: Ecoli growth	HNF4A DNA FP	FGF22 binding	Vif TR-FRET	AF4-AF9 inh	rRNA inh HTS	rRNA inh HTS OD600	rRNA inh HTS RFP	ALR inh
COc1ccc(C2=NN(C(=O)CSc3cn(C)c4ccccc34)C(c3ccc(OC)cc3)C2)cc1 (stereo not drawn) in the list: 0.78	2.9	i	-19%	0.1	6	19	2.2	0
COC(=O)c1cccc2c1-c1ccccc1/C2=N/O in the list: x	3.3	x	2%	x	x	x	x	0
NC(=O)c1c(NC(=O)c2cccnc2Cl)sc2c1CCCC2 in the list: 0.69	0.7	x	0%	x	x	x	x	15

Carrying on:
SMILES	Ecoli growth	HNF4A DNA FP	FGF22 binding	Vif TR-FRET	AF4-AF9 inh	rRNA inh HTS	rRNA inh HTS OD600	rRNA inh HTS RFP	ALR inh
COc1ccccc1S(=O)(=O)N[C@@H]1CC[C@H](CCn2cc(C3CCCCC3)nn2)O[C@@H]1CO	x	x	i	x	1.5	-8	-13	-1.4	x
COC(=O)c1ccc(-c2ncc(-c3cccc4ccccc34)o2)cc1	0.7	0.4	x	-3%	0.5	x	x	x	2
CO[C@H]1CN(C)C(=O)c2ccc(NC(=O)c3ccc4c(c3)OCO4)cc2OC[C@H](C)N(CCC(F)(F)F)C[C@H]1C	x	x	i	x	3.5	-6	-12	5.4	x
N#C[C@H]1[C@H](c2ccccc2-c2ccc(F)cc2)[C@@H](CO)N1C(=O)Cc1ccccc1	x	x	i	x	1.1	-13	-58	14	x

An excerpt; rates above refer to the full screens.
